# VDR inh: inhibitors of human vitamin D receptor. P11473. VDR-SRC2-3 peptide fluorescence polarization, 2 h. 400,000 compounds, 0.93% hits. Potency, µM, for the others: max response, negative = inhibition, most hits filed as inhibitors; active = well fitted inhibition curve with a large enough effect; inconclusive = small, poorly fitted or top-dose-only effect, or another doubt; inactive = no such curve, though single readings can be large or run the other way; also: series mostly up to about 120 µM
# Target sequence (P11473 whole entry, looked up): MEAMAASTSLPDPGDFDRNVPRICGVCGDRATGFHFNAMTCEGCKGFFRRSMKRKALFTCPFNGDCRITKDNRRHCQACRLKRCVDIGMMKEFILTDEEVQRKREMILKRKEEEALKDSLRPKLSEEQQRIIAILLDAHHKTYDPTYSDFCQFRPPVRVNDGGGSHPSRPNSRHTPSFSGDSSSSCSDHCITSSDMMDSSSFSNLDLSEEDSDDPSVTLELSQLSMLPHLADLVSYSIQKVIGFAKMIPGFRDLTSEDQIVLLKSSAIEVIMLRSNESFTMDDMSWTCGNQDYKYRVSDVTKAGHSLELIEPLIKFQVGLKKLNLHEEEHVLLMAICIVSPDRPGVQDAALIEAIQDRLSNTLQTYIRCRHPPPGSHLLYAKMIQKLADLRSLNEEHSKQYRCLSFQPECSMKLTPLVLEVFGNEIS
#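 Fluorescence polarization assay of small-molecule disruption of VDR binding to coregulator peptide SRC2-3. Compounds and controls pin-transferred, then read after 2 h incubation at ambient room temperature.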
# * hit, by the source's call; ? = inconclusive; & = joins results of further samples. % is scaled to controls: 0 for no effect and ±100 for the full control effect; potency is read from the fitted curve at half-maximal effect. Only part of the results is shown; count on the stated rates, not on these rows.
SMILES,VDR inh
COc1ccc(C(CNC(=S)NCc2ccccc2)N2CCCC2)cc1 (configuration not stated),-13.5%
Cc1ccnc(NC(=O)CNC(=O)c2ccc(C)s2)c1,-19.3%
Cc1ccccc1NC(=O)c1cccc(S(=O)(=O)N2CCOCC2)c1,-12.2%
CCN(C(=O)CSc1n[nH]c(-c2ccccc2)n1)c1c(N)n(Cc2ccccc2)c(=O)[nH]c1=O,1.2%
Cc1cccc(NC(=O)c2ccc(F)c(S(=O)(=O)NCc3ccc4c(c3)OCO4)c2)c1,16.1%
Cc1ccc(C2C=C(c3ccc(F)cc3)Nc3nc(CCCO)nn32)cc1 (configuration not stated),-5.3%
CC(CN(C)Cc1ccccc1)OC(=O)c1cccc(F)c1 (configuration not stated),0.7%
CS(=O)(=O)NNC(=O)C1Cc2c(ccc3ccccc23)O1 (configuration not stated),0.2%
CCCc1n[nH]c2c1/C(=N\OCC)CC(C)(C)C2,-14.3%
CCc1cc2c(=O)c(-c3nc4ccccc4n3C)coc2c(CN2CCC(C)CC2)c1O,7.8%
CCC(=O)N1CCc2cc(S(=O)(=O)NCCCOC)ccc21,0.4%
CSCCC(NC(=O)c1cc([N+](=O)[O-])ccc1Cl)C(=O)O (configuration not stated),14.6%
Cc1noc(-c2ccc(-c3noc(-c4ccc(C(F)(F)F)cc4)n3)cc2)n1,18.8%
COc1ccc(NC(C)=O)c(C)c1,2.8%
CCOc1ccccc1Nc1ncnc2c1c(-c1ccccc1)cn2-c1ccc(OC)cc1,11.5%
CCOC(=O)C1=CN2CCC[C@H]2CC1=O,-11.5%
COc1ccc(-c2cn3c(C)c(C(=O)Nc4cccc(C)n4)sc3n2)cc1,-5.5%
Cc1ccc(CC(=O)NC2CCSC2=O)cc1 (configuration not stated),9.1%
O=C(O)CCCCCn1c(SCC(=O)N2CCCC2)nc2ccsc2c1=O,2.4%
NC(=O)CNC(=O)[C@@H]1CC2(CC(c3ccc(Cl)cc3)=NO2)CN1C(=O)c1ccccc1 (some centres not stated),-5.7%
Cc1ccc(C(=O)NCc2ccncc2)cc1S(=O)(=O)N1CCCCC1,-7.0%
COC(=O)C1CCN(C(=O)COC(=O)c2cc(-c3cccs3)nn2-c2ccccc2)CC1,-10.4%
COc1ccc(C2=NOC(C(=O)Nc3c(C)n(C)n(-c4ccccc4)c3=O)C2)cc1OC (configuration not stated),11.0%
CCC(C(=O)Oc1c(C(C)C)cccc1C(C)C)c1ccccc1 (configuration not stated),?
COC(=O)c1ccc(C)c(NS(=O)(=O)c2ccc(OC)cc2)c1,-5.6%

# Part of the list above, reformatted:
Structure | VDR inh
CCN(C(=O)CSc1n[nH]c(-c2ccccc2)n1)c1c(N)n(Cc2ccccc2)c(=O)[nH]c1=O | 1.2%
COc1ccc(C(CNC(=S)NCc2ccccc2)N2CCCC2)cc1 (configuration not stated) | -13.5%
Cc1ccnc(NC(=O)CNC(=O)c2ccc(C)s2)c1 | -19.3%
Cc1noc(-c2ccc(-c3noc(-c4ccc(C(F)(F)F)cc4)n3)cc2)n1 | 18.8%
CCOc1ccccc1Nc1ncnc2c1c(-c1ccccc1)cn2-c1ccc(OC)cc1 | 11.5%

# (continued)
SMILES,VDR inh
CC1(CCc2ccccc2)NC(=O)N(Cc2nnc(-c3ccccc3Br)o2)C1=O (configuration not stated),10.9%
Cn1c(=O)c2c(nc(CN3CCN(C(=O)c4ccco4)CC3)n2CCCc2ccccc2)n(C)c1=O,-12.4%
CC(C)(C)NC(=O)NC(=O)CSc1ncc(C(F)(F)F)cc1Cl,?
CSc1nnnn1-c1ccc(Cl)cc1,-15.9%
Cc1[nH]c2ccccc2c1C(=O)C(=O)NCCc1ccc(S(N)(=O)=O)cc1,12.1%
CCCc1c(C(=O)N/N=C/c2c(OC)ccc3ccccc23)nnn1-c1nonc1N,0.6%
COCc1ccc(C(=O)N2CCCC(N3CCN(c4ccc(F)cc4)CC3)C2)o1 (configuration not stated),-1.2%
Cc1cccc(NCc2nc(SCC(N)=O)n[nH]2)c1,-1.7%
C=CCNC(=O)c1c(Cl)nc(C)c([N+](=O)[O-])c1C,1.7%
COC(=O)c1nnc(-c2ccccc2)nc1OC,12.7%
CCCn1c(=O)c(C(=O)Nc2ccccc2)c(O)c2ccccc21,12.3%
CCN(CC(=O)Nc1c(F)cccc1F)C(=O)c1ccc2c(c1)NC(=O)C(C)S2 (configuration not stated),-16.2%
COc1ccc(/C=C/C(=O)NCc2cccnc2)cc1,-10.6%
COc1cc(C(=O)Nc2ccccc2C(=O)Nc2ccccn2)cc(OC)c1OC,-5.4%
CCN(CC)S(=O)(=O)c1ccc(NC(=O)COC(=O)CNS(=O)(=O)/C=C/c2ccccc2)cc1,-3.4%
CCc1noc(-c2ccc(NC(C)c3ccccc3)c([N+](=O)[O-])c2)n1 (configuration not stated),3.2%
O=C(NCc1ccccn1)C(=O)NCC1OCCN1S(=O)(=O)c1ccc(F)cc1 (configuration not stated),1.0%
CCCCCN(C(=O)CCC(=O)OCC(=O)c1ccc(CCC)cc1)c1c(N)n(CCCC)c(=O)[nH]c1=O,-10.2%
CCOC(=O)N1CCN(S(=O)(=O)c2cccs2)CC1,-21.5%
CC(C)(C)CNc1cc(N2CCCC2)ccc1[N+](=O)[O-],10.6%
CC(C)CCCC(C)C1CCC2C3CC=C4CC(O)CCC4(C)C3CCC12C (configuration not stated),-3.0%
CN(C(=O)c1ccc(Br)o1)C1CCS(=O)(=O)C1 (configuration not stated),-2.3%
Nc1cnc(CNc2ccccc2Cl)cn1,-11.6%
CC1(C)Cc2cccc(OCC(=O)OCC(=O)NCc3ccc(F)cc3)c2O1,-19.3%
CNC(=S)NNc1ccccc1[N+](=O)[O-],70.8µM*

# Looked up by structure from above, four records:
SMILES,VDR inh
CC1(CCc2ccccc2)NC(=O)N(Cc2nnc(-c3ccccc3Br)o2)C1=O (configuration not stated),10.9%
Nc1cnc(CNc2ccccc2Cl)cn1,-11.6%
COC(=O)c1nnc(-c2ccccc2)nc1OC,12.7%
CCN(CC(=O)Nc1c(F)cccc1F)C(=O)c1ccc2c(c1)NC(=O)C(C)S2 (configuration not stated),-16.2%

# New compounds follow.
SMILES,VDR inh
COc1ccc(S(=O)(=O)Nc2cccc3c2O[C@H](CN(C)S(=O)(=O)c2ccc(F)cc2)[C@H](C)CN([C@H](C)CO)C3=O)cc1,-1.0%
CC(C)(O)CNC(=O)C(Cc1ccccc1)N1C(=O)c2ccccc2C1=O (configuration not stated),-4.3%
COCC(=O)N(Cc1nc2ccccc2c(=O)[nH]1)Cc1cccs1,-18.0%
COc1ccccc1C1CC(c2ccco2)=NN1S(C)(=O)=O (configuration not stated),?
Cc1cc(C(=O)Nc2cccc(/C=C/C(=O)O)c2)c(C)o1,-1.8%
Cc1cc(Cl)ccc1C(=O)C1CCCN(C(=O)c2ccsc2)C1 (configuration not stated),-13.2%
CCN(CC)S(=O)(=O)c1ccc(NC(=O)c2ccc(Cl)nc2)cc1,-22.2%
CCOC(=O)c1nnc2c(-c3ccc(Cl)cc3)c(C)nn2c1C,3.1%
Cc1ccc(-c2nc(C)c(CCNC(=O)c3ccco3)s2)cc1,7.3%
Cc1ccc(C(C)(c2ccc(N)cc2)c2ccc(N)cc2)cc1,4.0%
CCCCNC(=O)c1c(-c2ccccc2)c(-c2ccccc2)nn(C)c1=O,15.0%
COc1ccc(C(=O)Nc2cccc(OC(=O)c3ccc(C)c(C)c3)c2)cc1,-0.7%
CCOC(=O)c1c(NC(=O)CSc2cn(CCNC(=O)c3c(F)cccc3F)c3ccccc23)sc2c1CCC2,-3.2%
Cc1nnc(SCC(=O)Nc2sc3c(c2C#N)CCCCC3)n1N,-20.9%
CC(=O)Nc1ccc(NC(=O)c2c(C)nc3ccccn23)cc1,7.1%
COc1cc(NC(=O)CSc2nnc3ccc(-c4ccncc4)nn23)cc(OC)c1,-13.0%
O=C1CSc2ccc(C(=O)NCC(c3ccco3)N3CCCCC3)cc2N1 (configuration not stated),-17.3%
COc1ccc(C(=O)CCC(=O)Nc2cc(C)ccc2C)cc1,8.3%
COc1ccccc1NC(=O)NC1(C(=O)NCC2CCCO2)CCCCC1 (configuration not stated),-1.0%
O=C1C=C(O)CC(c2ccc(Cl)c(Cl)c2)C1 (configuration not stated),-12.6%
CCCn1c(N)c(N(CCOC)C(=O)c2ccc(C#N)cc2)c(=O)[nH]c1=O,5.1%
CC(C)c1ccc(CNC(=O)C2CC(=O)N(C3CCCCC3)C2)cc1 (configuration not stated),-13.7%
COc1cc(Cl)c(S(=O)(=O)NCCc2c(C)[nH]c3c(C)cccc23)cc1Cl,4.1%
Fc1ccc(N/N=C/C=C/c2ccccc2)c(F)c1,-17.4%
O=C(/C=C/c1ccccc1)NCCc1ccccc1,7.6%

# With a hit mark in VDR inh, among the entries above:
SMILES,VDR inh
CNC(=S)NNc1ccccc1[N+](=O)[O-],70.8µM*

# New compounds follow.
SMILES,VDR inh
O=C(OCn1nnc2ccccc2c1=O)C1CCN(S(=O)(=O)c2cccs2)CC1,0.0%
O=C1c2ccccc2C(=O)c2c1ncn2-c1ccccc1,-20.6%
CCOC(=O)Cn1c(=O)n(-c2ccc(Cl)cc2)c2nc(-c3ccc(Cl)cc3)nc(C(N)=O)c21,7.9%
Cc1ccc(C(=O)Nc2nnc(-c3ccncc3)o2)cc1,19.6%
Cc1cc(C)cc(OCC(=O)OCc2nnc(-c3ccccc3)o2)c1,-8.9%
CCN1C(=NCCc2ccc(Br)cc2)N[C@@H](c2ccccc2)[C@H](C(=O)OC)[C@H]1C,-18.0%
CCOc1ccccc1CNS(=O)(=O)c1ccc(-c2coc(C)n2)cc1,-4.3%
Cc1ccc(NC(=O)CCCc2ccccc2)c([N+](=O)[O-])c1,-12.3%
COc1ccc(CCNC(=O)c2cnn(-c3ccc(F)cc3)c2C2CCN(C(=O)OC(C)(C)C)CC2)cc1OC,-0.7%
O=C1NC(c2ccccc2)Nc2c1sc(=S)n2-c1ccccc1 (configuration not stated),-6.4%
CCc1ccc2c(c1)C(O)(CC(=O)c1cccs1)C(=O)N2 (configuration not stated),0.0%
CCc1noc(C)c1C(=O)N(C)CC(=O)Nc1ccccc1Br,-10.1%
O=C(N/N=C/c1c(Cl)[nH]c2ccccc12)c1sc2ccccc2c1Cl,-10.1%
C/C(=N/N=C(/C)c1cccs1)c1cccs1,8.9%
O=C1CC(C(=O)O)NC(=S)N1 (configuration not stated),-2.9%
COc1ccc(N=C2NN=C(c3c(C)[nH]c4ccccc34)CS2)cc1,-14.1%
CC(=O)C1C(c2ccc([N+](=O)[O-])cc2)c2c(noc2C)CC1(C)O (configuration not stated),2.9%
COc1ccc(CCn2c(C)cc(C(=O)COC(=O)c3cnc(C)cn3)c2C)cc1,4.1%
CCN1C(=O)[C@@H]2[C@@H](c3ccc(-c4ccc5c(c4)OCO5)c(OC)c3)N3CCC[C@@]3(C(=O)OC)[C@@H]2C1=O,4.7%
CCCS(=O)(=O)N1CC(=O)N(c2ccccc2C)C(C)(C(=O)NC2CCCCC2)C1 (configuration not stated),7.4%
CCN(Cc1ccccc1)C(=O)c1ccc(Cl)cc1[N+](=O)[O-],10.1%
O=C(Oc1ccc(=O)n(-c2ccccc2)n1)c1ccc(Cl)cc1,-0.1%
CCN(CC)c1ccc(NC(=O)c2[nH]c(C)c(C(C)=O)c2C)c(C)c1,1.8%
N#Cc1cccc(NC(=O)N2CCCC3(CCN(C(=O)c4csnn4)CC3)C2)c1,-4.6%
NC(=O)COc1ccc(NC(=O)CC23CC4CC(CC(C4)C2)C3)cc1,13.8%

# Going on with the list:
SMILES,VDR inh
CCOC(=O)Nc1sc(C)c(C)c1C(=O)OCC,-17.5%
CC(=O)C(Cc1ccccc1)NC(=O)CN1c2cccc3cccc(c23)S1(=O)=O (configuration not stated),16.2%
CCOc1ccc(-n2c(SCc3ccc(C(=O)OC)o3)nc3c(c2=O)SCC3)cc1,-21.7%
CCOc1ccc(C2C(=O)N(C3CCCCCC3)CC(=O)N2CCc2ccc(OC)c(OC)c2)cc1OC (configuration not stated),11.2%
CCOc1ccc(S(=O)(=O)NCCC(=O)N(C)Cc2cccs2)cc1,7.0%
CCOC(=O)c1nn(-c2ccccc2F)c(-c2ccccc2)c1C(=O)c1ccccc1,-5.1%
Cc1cccc(NC(=O)Cn2c(=O)oc3cc(S(=O)(=O)NCc4ccccc4)ccc32)c1,3.0%
CCCCCCCNC(=O)CN1N=C(c2ccc(C)cc2)CCC1=O,8.6%
O=c1c(CCc2ccccc2)nc2cnc(Oc3cccc(Cl)c3)nc2n1C[C@H]1CCCO1,4.6%
Cc1ccc(CSC2=Nc3ccccc3C3=NC(CC(=O)NCc4cccs4)C(=O)N23)cc1 (configuration not stated),3.7%
O=C(OCc1cccc(C(F)(F)F)c1)c1cc(S(=O)(=O)N2CCOCC2)ccc1F,11.8%
COc1ccc(C2(C#N)CCC(C(=O)O)CC2)cc1OC1CCCC1 (configuration not stated),5.3%
CCc1cccc(C)c1NS(=O)(=O)c1ccc(-n2cccn2)cc1,11.3%
C=CCNC(=O)C(=O)Nc1cc2c3c(c1)CCC(=O)N3CCC2,-10.6%
COc1ccc(OCC(=O)NCc2ccc3c(c2)CCN3C(=O)c2ccccc2)cc1,7.7%
Cc1cccc(C(=O)NC2CC3CCCC(C2)N3S(=O)(=O)c2ccccc2)c1 (configuration not stated),6.4%
COc1ccc(S(=O)(=O)N/N=C/c2ccc(OCCN3CCOCC3)c(OC)c2)cc1,-11.0%
CCOC(=O)Cc1csc(NC(=O)C2CCCCC2C(=O)O)n1 (configuration not stated),17.9%
CCCCNC(=O)Cn1cnc2sc(C)c(S(=O)(=O)N3CCN(c4ccccc4OC)CC3)c2c1=O,20.4%&-11.0%
CC(C)Nc1nnc(SCC(=O)Nc2sccc2C#N)s1,-8.7%
CN(C)/[N+]([O-])=N/Oc1cc(ON=[N+]([O-])N2CCN(c3ncccn3)CC2)c([N+](=O)[O-])cc1[N+](=O)[O-],-25.1%
COc1ccc(S(=O)(=O)N2CCN(C(=O)c3ccc(C)o3)CC2)cc1,-10.7%
CN1C(=O)CSc2ccc(NC(=O)NCc3ccccc3)cc21,6.4%

# Screening data: PubChem, National Center for Advancing Translational Sciences (NCATS)
